VDR inh – Inhibitors of the vitamin D receptor (VDR): qHTS. Potency, µM, for the others: max response, negative = inhibition, hits mostly inhibitors. VDR-SRC2-3 peptide fluorescence polarization, 2 h. 0.93% of 400,000 active; active = well fitted inhibition curve with a large enough effect; inconclusive = small, poorly fitted or top-dose-only effect, or another doubt; inactive = no such curve, though single readings can be large or run the other way; also: series mostly up to about 120 µM
Target sequence (P11473 whole entry, looked up): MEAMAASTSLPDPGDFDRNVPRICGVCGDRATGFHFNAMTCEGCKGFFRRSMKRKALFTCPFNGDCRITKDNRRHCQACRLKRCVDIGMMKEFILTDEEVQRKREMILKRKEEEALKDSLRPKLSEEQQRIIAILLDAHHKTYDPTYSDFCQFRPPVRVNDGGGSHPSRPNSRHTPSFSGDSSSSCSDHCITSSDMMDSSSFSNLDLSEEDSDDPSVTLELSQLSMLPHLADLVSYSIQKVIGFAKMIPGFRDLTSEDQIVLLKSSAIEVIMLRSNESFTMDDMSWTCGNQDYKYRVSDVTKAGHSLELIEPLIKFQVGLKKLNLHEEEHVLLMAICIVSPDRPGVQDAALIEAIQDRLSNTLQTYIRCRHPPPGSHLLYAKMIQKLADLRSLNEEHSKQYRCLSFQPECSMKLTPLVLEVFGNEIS
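The screen uses fluorescence polarization to detect compounds that interfere with recruitment of the SRC2-3 coactivator peptide to VDR; plates are read after 2 h at room temperature.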
Starred values were filed as active, the others as inactive; u = inconclusive; & = joins results of further samples. % is scaled to controls: 0 for no effect and ±100 for the full control effect; potency is read from the fitted curve at half-maximal effect. This is a subset, so the mix of outcomes need not match the whole.

SMILES | VDR inh
C=CCn1c(N)c(C(=O)Nc2ccc(C)c(C)c2)c2nc3ccccc3nc21 | -2%
CCN(C(=O)COC(=O)CNC(=O)c1ccc2ccccc2c1)C1CCS(=O)(=O)C1 (centres undefined) | -11%
COc1ccc(OC)c(C(=O)NC(CC(N)=O)c2ccc(NCc3ccc(F)c(F)c3)c([N+](=O)[O-])c2)c1 (centres undefined) | 9%
Cc1noc(C)c1COc1ccc(C(=O)Nc2nnc(CC(C)C)s2)cc1 | -15%
O=C(NCCCOc1ccc([N+](=O)[O-])cc1Cl)OCc1ccccc1 | -28%
CCCCN(CCCC)CCNC(=O)c1cc(=O)[nH]c2ccc(S(=O)(=O)N3CCCCCC3)cc12 | 8%
Cc1cccc(NC(=O)c2sc3nc(-c4ccccc4)cn3c2C)c1C | -2%
Cc1ccc(S(=O)(=O)Nc2ccc3nc(-c4cccc(Cl)c4)oc3c2)cc1 | -1%
CCCCN(CC)S(=O)(=O)c1ccc(C(=O)N(CCCN(C)C)c2nc3cc(C)cc(C)c3s2)cc1 | 1%
CCOC(=O)C1CCN(C(=O)CNS(=O)(=O)c2ccc(Br)s2)CC1 | -5%
C=CCN(c1ccccc1)S(=O)(=O)c1cccc(C(=O)NCC(c2ccc(F)cc2)N2CCOCC2)c1 (centres undefined) | -7%
CCNC(=S)NNC(=O)c1csc2c1CCC(C)C2 (centres undefined) | 3%
COC(=O)CN1C(c2ccccc2O)Nc2ccc(Br)cc2C1c1ccccc1 (centres undefined) | 13%
O=C(O)Cn1nnc(-c2ccc(OCc3ccccc3Cl)cc2)n1 | 0%
Cc1csc(SCC(=O)N2CCN(S(=O)(=O)c3ccc(Cl)cc3)CC2)n1 | 17%
O=C(Nc1ccc(-n2nncc2-c2ccco2)cc1)c1cccc(F)c1 | -10%
C[C@H](CO)N1C[C@H](C)[C@@H](CN(C)Cc2ccc(Cl)c(Cl)c2)Oc2c(NC(=O)Cc3ccccc3)cccc2C1=O | 9%
CC(=O)c1cccc(NC(=O)Cn2cc3c(n2)CCCC3)c1 | -11%
COc1ccc(/C=C/c2ccccc2)cc1C1C2C=CCC(C)C2C(=O)N1Cc1ccccc1 (centres undefined) | -9%
COC(=O)c1ccc(OCC(O)Cn2nnc3ccccc32)cc1 (centres undefined) | -6%
Nc1nc(-c2c(Cl)cccc2Cl)no1 | -5%
O=P1(O)Oc2c(c(-c3ccccc3)cc3ccccc23)-c2c(-c3ccccc3)cc3ccccc3c2O1 | -9%
COc1ccc(NC(=O)CSCC(=O)Nc2ccccc2N2CCCCC2)cc1 | 1%
CC(C)=CCNc1ncnc2c1c(C#N)cn2C1OC(CO)C(O)C1O (centres undefined) | 7%
O=C(NC1CC2CCCC(C1)N2Cc1ccccc1)c1cccc(Cl)c1 (centres undefined) | -14%

Arranged by SMILES length (low to high): some entries from above
SMILES | VDR inh
COC(=O)c1ccc(OCC(O)Cn2nnc3ccccc32)cc1 (centres undefined) | -6%
O=C(NCCCOc1ccc([N+](=O)[O-])cc1Cl)OCc1ccccc1 | -28%
C=CCn1c(N)c(C(=O)Nc2ccc(C)c(C)c2)c2nc3ccccc3nc21 | -2%
CCN(C(=O)COC(=O)CNC(=O)c1ccc2ccccc2c1)C1CCS(=O)(=O)C1 (centres undefined) | -11%
C[C@H](CO)N1C[C@H](C)[C@@H](CN(C)Cc2ccc(Cl)c(Cl)c2)Oc2c(NC(=O)Cc3ccccc3)cccc2C1=O | 9%

The listing picks up, starting 3 compounds before the break.
SMILES | VDR inh
COc1ccc(NC(=O)CSCC(=O)Nc2ccccc2N2CCCCC2)cc1 | 1%
CC(C)=CCNc1ncnc2c1c(C#N)cn2C1OC(CO)C(O)C1O (centres undefined) | 7%
O=C(NC1CC2CCCC(C1)N2Cc1ccccc1)c1cccc(Cl)c1 (centres undefined) | -14%
O=C(Cn1cc(SCc2ccc(F)cc2)c2ccccc21)N1CCCC1 | 8%
Cc1ccc2c(=O)c(C(=O)c3ccc(Cl)cc3)cn(CC(=O)Nc3ccc4c(c3)OCCO4)c2n1 | 15%
Cc1ccc(C(=O)Nc2c(C)n(C)n(-c3ccccc3)c2=O)cc1 | 29%
Cc1ccc(CNC(=O)c2ccc3nc(N4CCCCC4)sc3c2)cc1 | -8%
COc1ccc(N2CCN(C(c3ccc4ncccc4c3)c3nnnn3C(C)C)CC2)cc1 (centres undefined) | 7%
CCN(CC)C(=O)C1=C(C)Nc2nnnn2C1c1cccnc1 (centres undefined) | -4%
O=C(NCCC1=CCCCC1)c1ccc(=O)oc1 | -4%
O=C(NCc1cccnc1)C1CCCCN1S(=O)(=O)c1ccc(F)cc1 (centres undefined) | -3%
O=C(CN(C(=O)Cn1nnc(-c2ccccc2F)n1)c1cccc2c1CCCC2)NCc1ccccc1 | 0%
CC1CC(C)CN(CCCCOc2ccc([N+](=O)[O-])cc2)C1 (centres undefined) | 5%
COc1cc(-c2nnc(SCC(=O)O)n2-c2ccccc2)cc(OC)c1OC | 16%
COc1cc(C(CC(=O)N2CCN(c3ccccc3)CC2)c2c(OC)cc(OC)c3ccc(=O)oc23)cc(OC)c1OC (centres undefined) | -2%&-16%
OCCCNc1cc(-c2ccnc(Nc3cccc(Cl)c3)n2)ccn1 | 13%
NC(=O)CSc1nnc(COc2ccccc2)n1C1CCCCC1 | -7%
Cc1ccc(NS(=O)(=O)c2coc(C(N)=O)c2)cc1F | -25%
CCCCCn1c(C(Cc2ccccc2)NC(C)=O)nc2ccccc21 (centres undefined) | 3%
CC1(C)Cc2c(c(-c3ccccc3)nc3sc4c(=O)[nH]c(=S)[nH]c4c23)CO1 | 2%
CCC1NC(=O)c2ccccc2N1c1cccc(Cl)c1 (centres undefined) | 7%
Cc1ccc(C2=NC(c3ccccc3)=Nc3ccc(Cl)cc3N2)cc1 | 13%
CC1(C)N([O-])C2=C(CCCC2)[N+]1=O | -6%
C=CCn1c(C)cc(-c2csc(NC(=O)C3CCN(c4ncnc5sc(C)c(C)c45)CC3)n2)c1C | 13%
Cc1cccc(NC(=O)c2cc3c(=O)n4ccccc4nc3n(CC(C)C)c2=N)c1 | -13%
COCCCNC(=O)CN(c1cc([N+](=O)[O-])ccc1OC)S(C)(=O)=O | 16%
CC(=O)Nc1ccc(NCc2ccc(C)s2)cc1 | 7%
c1ccc(Cc2nnc3sc(-c4ccc5c(c4)OCCO5)nn23)cc1 | 0%
SMILES | VDR inh
CCOC(=O)c1sc(=NC(=O)/C=C/c2ccccc2)n(C)c1C | 3%
COC1CCCCC1NS(=O)(=O)c1ccccc1 (centres undefined) | -1%
CCN1CCN(CCC2Oc3cc([N+](=O)[O-])ccc3NC2=O)CC1 (centres undefined) | 7%
CC(=O)c1c(OCC(=O)N(C)C2CCCCC2)ccc2c(C)cc(=O)oc12 | 12%
Cc1ccc2c(c1)C(c1ccccc1)N(C(=O)c1ccc(Br)cc1)CC(=O)N2 (centres undefined) | 14%
Cc1cc(C)c(S(=O)(=O)N2CCN(c3ccccn3)CC2)c(C)c1 | 8%
Cc1ccc(-n2ncc3c(N4CCCCCC4)ncnc32)cc1Cl | 0%
CCCCn1c(CN2CCN(C(=O)OCC)CC2)nc2c1c(=O)[nH]c(=O)n2C | -3%
O=C(c1cnn(C(=O)c2cccc(S(=O)(=O)N3CCOCC3)c2)c1)c1ccccc1O | -14%
CC(C)(CNc1ccc([N+](=O)[O-])cc1Cl)N1CCOCC1 | -18%
CCOc1ccc(-n2c(N)c(C(=O)NCC3CCCO3)sc2=S)cc1 (centres undefined) | 79µM*
Cc1ccccc1C(=O)Nc1ccc(S(=O)(=O)N2CCOCC2)cc1 | -4%
COC(=O)C1CN(S(=O)(=O)c2ccc(C)cc2)CCN1S(=O)(=O)c1ccc(C)cc1 (centres undefined) | -8%
O=S(=O)(c1ccc(Br)cc1)N1CCN=C1SCc1cccnc1 | -13%
COc1ccccc1C(N)=S | -11%
Cc1cccc(C)c1N(CC(=O)NCc1ccc(F)cc1)C(=O)c1csnn1 | 4%
O=C(CCSCc1ccccc1Cl)NCc1ccc(F)cc1Cl | -1%
Cc1cccc(NC(=O)C23CCC(C)(/C(=N/O)C2)C3(C)C)c1 (centres undefined) | 3%
CCOC(=O)C(NC(=O)NCc1cccc(C(F)(F)F)c1)(OCC)C(F)(F)F (centres undefined) | 12%
COc1cc(NC(=O)c2ccc(N3CCCC3=O)cc2)cc(OC)c1 | 2%
O=C(NCC(=O)N(CC1CCCO1)C1(C(=O)NC2CCCCC2)CCCCC1)c1ccccc1 (centres undefined) | -4%
Cn1c(=O)oc2cc(S(=O)(=O)NC3CCCCCCC3)ccc21 | -2%
CCOC(=O)c1ccc(NC(=O)c2csc3c2CCCCC3)cc1 | -9%
CC1(C)Cc2c(C#N)c(SCc3nc4ccccc4[nH]3)nc(N3CCOCC3)c2CO1 | 3%
Cc1nnc2n(Cc3ccccc3)c(=O)c3c4c(sc3n12)COC(C(C)C)C4 (centres undefined) | 8%

Structures listed so far printed as active in VDR inh:
SMILES | VDR inh
CCOc1ccc(-n2c(N)c(C(=O)NCC3CCCO3)sc2=S)cc1 (centres undefined) | 79µM*

Further structures
SMILES | VDR inh
c1cn(CCCNC2CCCCCCC2)cn1 | -2%
CCN(CC(=O)N1CCN(c2ccccc2)CC1)S(=O)(=O)c1ccc(C)cc1 | -15%
CCc1nc2n(n1)C(O)c1cc([N+](=O)[O-])ccc1S2 (centres undefined) | 4%
COc1cccc(N2C(=O)CC(N3CCC(C(N)=O)(N4CCCCC4)CC3)C2=O)c1 (centres undefined) | 0%
Cc1nc2ccc(NC(=O)c3ccc(Br)o3)cc2s1 | 3%
Cc1ccc(NC(=O)N2CCC(NC(=O)c3ccco3)CC2)cc1 | 12%
CCOc1ccc(CCNC(=O)NCc2noc3ccc(C)cc23)cc1 | 2%
NC(=S)NNC(=O)c1ccccc1Cl | 5%
COc1cccc(C2=CC(c3ccccc3F)n3c(nc4ccccc43)N2)c1 (centres undefined) | -2%
Cc1cc(C)cc(NC(=O)C2CCCN2S(=O)(=O)c2cccc3cccnc23)c1 (centres undefined) | 6%
O=C1NCCOC(=O)[C@@H](Cc2ccc(F)cc2)C/C=C\C[C@@H]1CC(=O)N(CCO)Cc1ccccc1 | 10%
Cc1c(O)ccc(-c2[nH]ncc2-c2nc3ccccc3s2)c1O | 18%
CS(=O)(=O)Cc1cccc(C(=O)NN(c2ccccc2)c2ccccc2)c1 | -3%
Cc1sc2ncnc(N3CCC(C(=O)N(C)CC(=O)Nc4ccc(Cl)c(C(F)(F)F)c4)CC3)c2c1C | 10%
Cc1ccc(NC(=O)C(=O)NCC(c2cccnc2)N2CCN(C)CC2)cc1 (centres undefined) | 11%
CC(=O)CCc1ccccc1 | 13%
CNC(=O)NC(=O)C(C)N1CCN(C/C=C/c2ccccc2)CC1 (centres undefined) | -9%
O=C(N1CCN(c2cccc(Cl)c2)CC1)C1(c2cccs2)CCOCC1 | -7%
O=C(NCc1ccccc1Cl)c1ccc2nnsc2c1 | 1%
CCOc1ccc(NC(=O)CSc2nncn2C)cc1 | -9%
Cc1cc(S(=O)(=O)N2CCN=C2c2ccccc2)c(C)cc1Cl | -15%
COc1ccc2oc(=O)c(C(C)=O)cc2c1 | 7%
NNC(=O)CCc1nc2ccc(O)cc2[nH]1 | 13%
Clc1ccc(-c2nnc(-c3cccc4ccccc34)o2)cc1 | -8%
CC1CCCCC1NCC(=O)Nc1ccccc1-c1ccccc1 (centres undefined) | -5%
SMILES | VDR inh
CCSc1nn(CC(=O)Nc2cccc(Cl)c2)c(N)c1S(=O)(=O)c1ccc(OC)cc1 | 6%
Cc1cccc(Oc2coc3cc(OC(=O)c4cncc(Br)c4)ccc3c2=O)c1 | 0%
CC(NCc1nc2ccccc2n1C)C12CC3CC(CC(C3)C1)C2 (centres undefined) | -5%
CCOC(=O)C1CCCN(CCC(=O)Nc2ccccc2C)C1 (centres undefined) | -10%
CN(C1CCCCC1)C(CNS(=O)(=O)c1ccc(Cl)cc1)c1ccccc1 (centres undefined) | -6%
Cc1cccc(-c2c3c(=O)n(C)c(=O)n(C)c3cn2-c2ccc(O)cc2)c1 | 9%
COc1ccc(/C=c2\s/c(=C/C(=O)c3ccc(C)cc3)[nH]c2=O)cc1OC | 4%
c1ccc(Cn2c(CNc3nc4ccccc4n3CCN3CCCCC3)nc3ccccc32)cc1 | 0%
CC(C)Oc1ccc(C(=O)O)c(C(=O)O)c1 | 22%
Cc1ccc(C)c(-n2c(CNC(=O)c3ccco3)nnc2SCC(=O)Nc2nnc(C)s2)c1 | 4%
CC(=O)NC1C(OCc2ccccc2)OC(COC(C)=O)C(OC(C)=O)C1OC(C)=O (centres undefined) | -6%
CCCCN(C(=O)c1ccccc1F)c1c(N)n(CCC)c(=O)[nH]c1=O | -6%
Cc1ccccc1Sc1ncnc2onc(C)c12 | 22%
COC(=O)CSc1n[nH]c(=S)s1 | -2%
Cc1ccc(NC(=O)C2CCCN(S(=O)(=O)c3cnc[nH]3)C2)c(Br)c1 (centres undefined) | u
CCC(C)NC(=O)Cn1c(-c2ccccc2)cc(C(C)=O)c1C (centres undefined) | -8%
CCN(CC)C(=O)CN1C(=O)c2cccc3cccc(c23)C1=O | -9%

Among those listed so far, 3 have a COOH group:
SMILES | VDR inh
O=C(O)Cn1nnc(-c2ccc(OCc3ccccc3Cl)cc2)n1 | 0%
COc1cc(-c2nnc(SCC(=O)O)n2-c2ccccc2)cc(OC)c1OC | 16%
CC(C)Oc1ccc(C(=O)O)c(C(=O)O)c1 | 22%

Source: PubChem BioAssay
